Compound activity as filed in PubChem.
StopGo reporter = lowers the luciferase signal of an FMDV 2A StopGo reporter; Potency, µM (top dose mostly 57.9 µM), for inactives: top-dose signal change, negative = less light; 1.2% of 410,000 active; human cells with a luciferase reporter of 2A StopGo recoding; control for the full effect not named in the record; active = well fitted falling curve with a large enough effect; inconclusive = small, poorly fitted or top-dose-only effect; inactive = no such curve, though single readings can be large or run the other way; tested in HEK293T cells; further: on the % scale 0 is the no-effect control and ±100 the full control effect; nearly all actives have a fitted effect of over 45% in size; luciferase light after 4 h
LASV entry inh = Lassa virus entry inhibition. Lassa virus pseudotype entry inhibition, cell reporter; control for the full effect not named in the record. Potency, µM (doses to about 37.9 µM), for the others: at the highest dose activity change, negative = inhibition, most hits filed as inhibitors. 1.2% of 300,000 active; active means well fitted inhibition curve with a large enough effect; inconclusive means small, poorly fitted or top-dose-only effect, or effect the other way; inactive means flat fitted curve, though single readings scatter; tested in HEK293 cells; further: on the % scale 0 is the no-effect control and ±100 the full control effect; nearly all actives have a fitted effect of over 50% in size; luciferase read-out
NS1 function inh = inhibitors of influenza NS1 protein function; Potency, µM (highest dose often 46.1 µM), for the others: top-dose activity, positive = more growth; 0.4% of 270,000 active; AID 2326; S. cerevisiae slowed by influenza A NS1, growth recovery by OD600; active means well fitted rising curve with a large enough effect; inconclusive means small, poorly fitted or top-dose-only effect; inactive means no such curve, though single readings can be large or run the other way; further: nearly all actives have a fitted effect of over 50% in size
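A cell-based growth assay was used: compounds that relieve NS1-induced slow growth of budding yeast raise OD600. Assay medium was yeast nitrogen base with ammonium sulphate and -URA supplement, pH 6.0, with 2% galactose.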
Marburg entry inh = blocks Marburg virus binding to or entry into cells; Potency, µM (series often up to 37.8 µM), without a hit: at the highest dose activity change, negative = inhibition, most hits filed as inhibitors; AID 540276; Marburg virus pseudotyped entry inhibition, cell reporter; control for the full effect not named in the record; about a third of the inactives were read at about 46 µM; 1.8% of 300,000 active; active = well fitted inhibition curve with a large enough effect; inconclusive = small, poorly fitted or top-dose-only effect, or effect the other way; inactive = flat fitted curve, though single readings scatter; tested in HEK293 cells; about a fifth of its hits are not listed in these tables; further: on the % scale 0 is the no-effect control and ±100 the full control effect; luciferase read-out
RE007 growth inh = less growth of the S. pombe RE007 Vpr strain; Potency, µM (series often up to 92.2 µM), inactives show top-dose activity change, negative = less growth; S. pombe RE007 Vpr strain, BacTiter-Glo ATP luminescence, 24 h; control for the full effect not named in the record; 0.21% of 360,000 active; active = well fitted falling curve with a large enough effect; inconclusive = small, poorly fitted or top-dose-only effect; inactive = no such curve, though single readings can be large or run the other way;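 further: on the % scale 0 is the no-effect control and ±100 the full control effect; nearly all actives have a fitted effect of over 50% in size; the assay follows cell death caused by Vpr and the record does not say whether a fall means rescue or toxicity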
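Fission yeast RE007 carrying one integrated HIV-1 vpr copy, seeded at OD 0.01 in PMG+AL medium with 23 nL pinned compound. Grown 24 h at 30 degrees; viability read by BacTiter-Glo luminescence after 5 min.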
Cruzain Triton = blocks cruzain activity in presence of Triton detergent; P25779; purified cruzain, Z-FR-AMC fluorescence, 0.01% Triton; Potency, µM, for inactives: max response, negative = inhibition, hits mostly inhibitors; 0.43% of 200,000 active; AID 1478;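 further: plate controls were neutral wells for no effect and buffer without enzyme for full effect; nearly all actives have a fitted effect of over 40% in size; top concentration of the series not given in the record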
Target sequence (P25779 123-467 limits assumed): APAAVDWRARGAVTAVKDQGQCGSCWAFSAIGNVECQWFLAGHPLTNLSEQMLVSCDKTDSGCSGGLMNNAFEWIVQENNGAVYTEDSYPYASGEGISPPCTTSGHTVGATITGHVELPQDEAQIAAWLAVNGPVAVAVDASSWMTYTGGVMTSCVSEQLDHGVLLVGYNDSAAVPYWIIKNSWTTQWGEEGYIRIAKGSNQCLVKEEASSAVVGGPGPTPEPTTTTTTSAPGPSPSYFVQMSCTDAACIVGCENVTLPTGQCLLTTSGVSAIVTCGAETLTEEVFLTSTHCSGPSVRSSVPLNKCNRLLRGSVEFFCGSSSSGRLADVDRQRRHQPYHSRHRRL
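Steps: dispense cruzain (1.5 nM final) in acetate buffer pH 5.5 with DTT and 0.01% Triton X-100; pin-transfer compounds; incubate 15 min RT; add Z-FR-AMC (2 uM final); read fluorescence every 30 s, using the 60 s intensity change.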
Cruzain noTriton = blocks cruzain activity in detergent-free assay | P25779 | purified cruzain, Z-FR-AMC fluorescence, no detergent | Potency, µM, for the others: max response, negative = inhibition, most hits filed as inhibitors | 2.3% of 200,000 active;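 further: plate controls were enzyme without inhibitor for no effect and buffer without enzyme for full effect; nearly all actives have a fitted effect of over 40% in size; top concentration of the series not given in the record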
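Purified cruzain at 1.5 nM, pre-incubated 15 min with compound at room temperature in 100 mM sodium acetate pH 5.5, 5 mM DTT, 0.00005% Triton X-100. Reaction started with 2 uM Z-FR-AMC; AMC fluorescence increase over 60 s gives rate.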
SARS PLpro yeast = inhibitors of SARS-CoV papain-like protease in yeast; S. cerevisiae expressing SARS-CoV PLpro, growth rescue; control for the full effect not named in the record; Potency, µM (titrated, usually from 32.9 µM), for the others: at the top dose activity, positive = growth rescue; 0.19% of 330,000 active; AID 485353; active means well fitted rising curve with a large enough effect; inconclusive means small, poorly fitted or top-dose-only effect; inactive means no such curve, though single readings can be large or run the other way; further: 0% is about no effect; nearly all actives have a fitted effect of over 55% in size; growth read by luminescence after 48 h
* = called active by the depositor; ? = inconclusive; . = not tested or not shown; & = joins results of further samples; ! = repeats disagree; [ ] = another dose, or the depositor's remark. Unless noted, the call rests on the fitted dose curve; in most records, active means well fitted curve in the direction sought with a large enough effect; inconclusive means small, poorly fitted or top-dose-only effect, or another doubt; inactive means no such curve, though single readings can be large; an effect the other way counts as inactive or inconclusive. Potency means the concentration at half of the fitted maximal effect.

The line under a structure holds: LASV entry inh, Marburg entry inh, SARS PLpro yeast, StopGo reporter, Cruzain Triton, Cruzain noTriton, RE007 growth inh, NS1 function inh
1: CC1(C(=O)c2ccccc2)C2c3c(ccc4ccccc34)OC(=O)C21C(=O)N1CCOCC1 (stereo not drawn)
  1%, 14%, -19%, -12%, -1.8%, ?, -3%, -82%
2: COc1cccc(CN(C)C(=O)c2ccc(NS(=O)(=O)c3ccc(F)cc3)cc2)c1OC
  -1%[46.1 µM], 0%, 8%, 36%[activator], ., ., -21%, .
3: O=C(CSCc1c(Cl)cccc1Cl)NN1C(=O)c2ccccc2C1=O
  11%, -8%, -2%, -18%, -5.5%, -19%, 0%, -15%
4: O=C(Nc1ccc2nc(-c3ccco3)c(-c3ccco3)nc2c1)N1CCN(c2ccccn2)CC1
  3%, ?, -3%, ?, 14µM*, 2.5µM*, 1%, ?
5: CCOc1ccc(C(=O)NCCC(=O)N2CCC3(CC2)NCCc2[nH]cnc23)cc1OCC
  13%[46.1 µM], 3%[46.1 µM], ?, -5%, ., ., -4%, -3%
6: O=C(CN1C(=O)CSc2ccc(S(=O)(=O)N3CCCC3)cc21)NCc1ccc(Cl)cc1
  -5%[46.1 µM], ., ., -3%, -4.4%, -3%, ., .
7: Brc1cccc(-c2cnco2)c1
  1%[46.1 µM], 0%[46.1 µM], 0%, -18%, ., ., -12%, 2%
8: CCSc1nnnn1-c1ccccc1
  2%, 4%, 3%, 0%, 1.2%, 0%, -6%, 0%
9: COc1cccc(CN2CC(O)=C(c3nc(-c4ccc(Cl)cc4)cs3)C2=N)c1
  -7%, -8%, ., -13%, -9.7%, 13µM*, -1%, 5µM*
10: CC(C)NC(=O)c1nn(C)c2c1CS(=O)(=O)c1ccccc1-2
  -11%[46.1 µM], ., ., -12%, -3.0%, 7%, ., .
11: O=C(CN1C(=O)c2cccnc2Sc2ccccc21)Nc1cc(F)ccc1F
  2%[46.1 µM], ., ., 1%, -4.2%, -5%, ., .
12: O=C(NCCc1ccccc1)c1n[nH]c2ccccc12
  ., ., -2%, 32%[activator], ., ., -5%, -30%
13: Cc1ccc2nc(S(=O)(=O)O)[nH]c2c1
  4%, -9%, ?, -13%, 3.5%, -2%, -6%, 2%
14: N#Cc1c(N)c(C(=O)c2ccc(Br)cc2)n2c1CCC2
  -25%, -7%, -6%, 0%, -5.2%, ?, 3%, -3%
15: COc1ccc(CCNC(=O)COC(=O)CCC(=O)c2cccs2)cc1OC
  0%[46.1 µM], ?, -16%, 6%, ., ., 5%, .
16: N#CC1=C(N)Oc2cc(Nc3ccccc3)ccc2C1c1ccncc1 (stereo not drawn)
  ?, 18µM*, ?, ?, -4.7%, -11%, 6%, -13%
17: COC(=O)c1sc(NC(=O)c2ccc(OC)cc2OC)nc1C
  ?, ?, ., 1%, ., ., -3%, .
18: CCc1cccc(NC(=O)CN2C(=O)CCc3cc(S(=O)(=O)N4CCOCC4)ccc32)c1
  9%[46.1 µM], ., ., 2%, -3.0%, ?, ., .
19: CC1=C(c2ccc(C(C)C)cc2)S(=O)(=O)N=C1N1CCN(c2ccc(F)cc2)CC1
  -2%[46.1 µM], 0%[46.1 µM], ., -8%, -4.1%, 16%, ., .
20: COC(=O)c1cn(-c2ccccc2)nc1C(=O)OC
  -13%, 2%, 2%, 17%, 2.8%, 2%, 15%, -1%

Following part:
The line under a structure holds: LASV entry inh, Marburg entry inh, SARS PLpro yeast, StopGo reporter, Cruzain Triton, Cruzain noTriton, RE007 growth inh, NS1 function inh
21: CCC(=O)Nc1nnc(SCC(=O)c2ccc3c(c2)Cc2ccccc2-3)s1
  6.5µM*, ?, -15%, ., 4.8%, 20µM*, 5%, 9%
22: Cc1c(/C=N/NC(N)=O)c2ccccn2c1C(=O)c1ccc(F)cc1
  0%, -7%, 20%, ?, -11%, -13%, 2%, 16%
23: COc1ccccc1CNC(=O)c1ccc(CS(=O)Cc2cccc(Cl)c2)o1 (stereo not drawn)
  ., ., 4%, -8%, ., ., -8%, -7%
24: COc1ccc2nc(NC(=O)c3nc(SCc4ccc(F)cc4)ncc3Cl)sc2c1
  1%[46.1 µM], 9%[46.1 µM], ., -15%, -3.1%, 6%, ., .
25: CCOc1cccc2sc(N(Cc3cccnc3)C(C)=O)nc12
  -3%[46.1 µM], ., ., -8%, -1.3%, 2%, ., .
26: COc1ccc(N(C)S(=O)(=O)c2cccc(C(=O)OC(C(=O)Nc3cc(C)cc(C)c3)c3ccccc3)c2)cc1 (stereo not drawn)
  -1%, ?, 21%, -5%, 2.8%, 10µM*, ., 8.9µM*
27: CCCCNC(=O)c1c[nH]c2ccc(S(=O)(=O)Nc3ccc(OCC)cc3)cc2c1=O
  -25%, ?, 1%, 12%, -1.2%, ?, -6%, 3%
28: O=C(O)C(O)c1ccco1 (stereo not drawn)
  5%, -11%, 3%, -11%, -0.8%, 2%, -6%, 21%
29: COC(=O)C1=C(C)N(c2ccc(C)cc2)/C(=C/c2ccc(O)cc2)C1=O
  ., ., 0%, -30%, ., ., -15%, 5%
30: CC1(C)NC(C)(C)C(O)(C(N)=O)C1=O (stereo not drawn)
  -3%, 2%, 0%, 14%, 4.3%, 6%, 8%, 2%
31: Cc1cccc(N2CCN(C(c3ccccc3)c3nnc(-c4ccccc4Cl)o3)CC2)c1C (stereo not drawn)
  ?, 7%[46.1 µM], ., -7%, -0.9%, 3%, ., .
32: Cc1ccc2nc(N3CCN(c4cccc(C)c4C)CC3)c3nnnn3c2c1
  24%[46.1 µM], -3%[46.1 µM], 2%, -8%&-26%, -0.9%&-2.1%, 4µM*!, 9%, 1%
33: Cc1ccccc1NS(=O)(=O)c1nnc(NC(=O)C(C)C)s1
  ., ., 1%, -16%, ., ., 0%, 3%
34: CCc1ccc(OCC(=O)Nc2cccc3nsnc23)cc1
  10%, 6%, -1%, 5%, ., ., -16%, -9%
35: CCN(CC)C(=O)C1CCN(S(=O)(=O)c2c(C)noc2/C=C/c2cccc(C)c2)CC1
  ., ., -13%, -23%, ., ., 21%, 28%
36: Cc1ccc(C)c(S(=O)(=O)N(C)c2ccc(OC(=O)C3CCN(C(=O)c4ccc(F)cc4)CC3)cc2)c1
  6%, ?, ., -18%, ., ., -10%, .
37: Cc1ccc(NS(=O)(=O)c2ccc(C(=O)N3CCN(c4ccccn4)CC3)cc2)cc1
  -14%, -24%, 0%, 18µM*, 1.3%, 0%, 8%, -10%
38: Cc1ccc(NC(=O)C2CCCN(S(=O)(=O)c3c(C)nn(C)c3C)C2)c(C)c1 (stereo not drawn)
  -1%[46.1 µM], -5%[46.1 µM], ., -8%, -0.6%, 9%, ., .
39: COc1ccc(CCNC(=O)c2ccc(CN3CCOCC3)cc2)cc1
  -2%, ?, -2%, -14%, 0.3%, -10%, 0%, 3%
40: O=[N+]([O-])c1ccc(S(=O)(=O)N2CCN=C2SCc2ccc(F)cc2)cc1
  ., ., -1%, 6%, ., ., 18%, 4%

Some of the entries so far, with one line to a screen.
40) O=[N+]([O-])c1ccc(S(=O)(=O)N2CCN=C2SCc2ccc(F)cc2)cc1
39) COc1ccc(CCNC(=O)c2ccc(CN3CCOCC3)cc2)cc1

| Screen / compound no. | 40 | 39 |
| --- | --- | --- |
| LASV entry inh | . | -2% |
| Marburg entry inh | . | ? |
| SARS PLpro yeast | -1% | -2% |
| StopGo reporter | 6% | -14% |
| Cruzain Triton | . | 0.3% |
| Cruzain noTriton | . | -10% |
| RE007 growth inh | 18% | 0% |
| NS1 function inh | 4% | 3% |

Next section:
The line under a structure holds: LASV entry inh, Marburg entry inh, SARS PLpro yeast, StopGo reporter, Cruzain Triton, Cruzain noTriton, RE007 growth inh, NS1 function inh
41: COc1ccc(OC)c(/C=N/NC(=O)c2cc3c(OC)cc(OC)cc3[nH]2)c1
  ?, ?, -1%, ?, ., ., 11%, ?
42: CC1CCN(c2oc(-c3cccs3)nc2S(=O)(=O)c2ccccc2)CC1
  -28%[46.1 µM], -14%[46.1 µM], ., 12%, -5.0%, -4%, ., .
43: CC1CC(=O)Nc2ccccc2N1C(=O)COc1ccc2ccccc2c1 (stereo not drawn)
  0%, -12%, -13%, -6%, ., ., 20%, .
44: COc1ccc(OCc2ccc(-c3nc(C#N)c(N4CCN(c5cccc(Cl)c5)CC4)o3)o2)cc1
  5%[46.1 µM], -19%[46.1 µM], ., -13%, -1.0%, 5%, ., .
45: COC(=O)c1[nH]c2cc(OC)c(OC)cc2c1/C=N/Nc1ccccc1
  ., ., -9%, 6%, ., ., 2%, -2%
46: CCCCn1c(Nc2ccccc2)nc2ccccc21
  22%, 12%, -5%, 6%, 0.9%, -5%, -3%, -4%
47: COc1ccc(-c2c(C)nc3c(-c4ccsc4)cnn3c2N)cc1
  ., ., 1%, 22%, ., ., -12%, 3%
48: Cn1c(=O)c2c(-c3ccc(OC(F)F)cc3)cc(-c3ccccc3)nc2n(C)c1=O
  ?, 8%[46.1 µM], 1%, -11%, ., ., -7%, -3%
49: Cc1cc(CSc2ccccc2)ccc1NC(=O)COc1ccccc1C
  9%, 28%[46.1 µM], -1%, -5%, -6.1%, -23%, 2%, 6%
50: CCCNC(=O)NC(=O)CSc1nc2ccccc2n1CC(C)C
  ?, ?, -4%, ?, 1.1%, 9%, -5%, -68%
51: O=C(NCc1ccccc1)c1ccc(NC(=O)N2CC3CCCN3c3ccccc32)cc1 (stereo not drawn)
  24%[46.1 µM], -3%[46.1 µM], ., 0%, -5.3%, ?, ., .
52: CCOC(=O)C1CCN(C(=O)C2CCN(C3=NS(=O)(=O)C(c4ccc(C)cc4)=C3CC)CC2)CC1
  ., -2%[46.1 µM], ., -29%, 3.9%, ?, ., .
53: Cc1cccc(C(=O)NCC(=O)OCCOc2ccccc2Cl)c1
  6%, 36%, -7%, 0%, ., ., -14%, .
54: CCC(C)n1c(-c2cccc(S(=O)(=O)N(CC)CC)c2)n[nH]c1=S (stereo not drawn)
  -3%, 8%[46.1 µM], -3%, -18%, ., ., 6%, .
55: CC(NC(=O)CN1CCN(S(=O)(=O)c2ccc(Br)cc2)CC1)c1ccccc1 (stereo not drawn)
  ?, ?, -3%, -15%, ., ., 2%, .
